# hNpr1 antagonist: antagonists of human natriuretic peptide receptor Npr1; 1.6% of 76,000 active; HEK293 hNpr1 GloSensor cGMP, ANP-stimulated luminescence; AID 1347048; Potency, µM (series often up to 46.3 µM), without a hit: at the top dose activity change, negative = inhibition, usual class: inhibitors; P16066; active = well fitted inhibition curve with a large enough effect; inconclusive = small, poorly fitted or top-dose-only effect; inactive = no such curve, though single readings can be large or run the other way;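 also: nearly all actives have a fitted effect of over 60% in size; nearly all hits also lower the signal before the agonist is added; a reference antagonist and vehicle were the controls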
# Target sequence (P16066 whole entry, looked up): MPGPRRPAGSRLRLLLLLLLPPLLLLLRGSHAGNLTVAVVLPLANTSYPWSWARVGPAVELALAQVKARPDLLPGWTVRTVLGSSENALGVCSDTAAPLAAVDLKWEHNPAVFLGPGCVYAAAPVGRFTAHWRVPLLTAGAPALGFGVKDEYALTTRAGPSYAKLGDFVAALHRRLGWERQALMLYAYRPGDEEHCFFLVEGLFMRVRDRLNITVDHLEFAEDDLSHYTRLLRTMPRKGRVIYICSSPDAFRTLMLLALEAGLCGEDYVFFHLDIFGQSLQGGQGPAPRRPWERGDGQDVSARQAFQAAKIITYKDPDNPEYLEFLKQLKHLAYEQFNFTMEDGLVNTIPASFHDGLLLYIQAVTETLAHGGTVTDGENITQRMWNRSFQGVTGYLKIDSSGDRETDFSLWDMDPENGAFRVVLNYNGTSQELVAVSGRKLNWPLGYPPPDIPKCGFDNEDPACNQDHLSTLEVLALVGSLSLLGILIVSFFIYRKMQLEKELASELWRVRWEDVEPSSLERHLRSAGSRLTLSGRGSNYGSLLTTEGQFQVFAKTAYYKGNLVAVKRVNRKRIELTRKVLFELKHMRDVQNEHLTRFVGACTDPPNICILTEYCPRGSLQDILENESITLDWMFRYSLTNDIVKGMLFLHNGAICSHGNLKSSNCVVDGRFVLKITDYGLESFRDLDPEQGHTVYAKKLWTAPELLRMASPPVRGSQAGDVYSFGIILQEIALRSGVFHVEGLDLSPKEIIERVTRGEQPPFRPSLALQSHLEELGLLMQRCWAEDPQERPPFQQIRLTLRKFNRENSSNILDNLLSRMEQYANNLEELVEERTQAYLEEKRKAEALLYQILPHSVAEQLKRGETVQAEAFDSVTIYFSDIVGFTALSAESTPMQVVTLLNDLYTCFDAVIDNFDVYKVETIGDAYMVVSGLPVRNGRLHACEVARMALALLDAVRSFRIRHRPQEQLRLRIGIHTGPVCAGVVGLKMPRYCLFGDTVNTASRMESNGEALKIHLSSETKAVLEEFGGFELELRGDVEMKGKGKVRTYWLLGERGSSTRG
#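 HEK293 cells stably expressing human Npr1 and cGMP GloSensor pGS-40F, loaded 2 h with 2% GloSensor reagent, given compound 30 min at room temperature. Luminescence read before and 20 min after 0.1 nM hNppA.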
# * marks the source's active call; other numbers are inactive results; ? = inconclusive; [ ] = dose if it differs, or a comment. % is scaled to controls: 0 for no effect and ±100 for the full control effect; potency is read from the fitted curve at half-maximal effect.
SMILES,hNpr1 antagonist
Cc1nn(C)c(C)c1CCCN(C)C(=O)C1N(C(C)C)C(=O)C12CCCC2 (stereo unspecified),2%
CCCNC(=O)[C@@H]1Cc2c[nH]c3cccc(c23)[C@H](CC(C)C)N1,-2%[70.6 µM]
Cc1cc(OC2CN(Cc3ccc(F)cc3)C2)ccc1F,14%[70.6 µM]
CCOc1ccc(Cl)cc1CN(C)Cc1cc2n(n1)CCCNC2,1%
CCOC(=O)C1(Cc2ccc(F)cc2F)CCCN(C(=O)Cn2nc(C)cc2C)C1 (stereo unspecified),2%
CCCC(C)C(=O)N1CCCN(C)c2ccccc21 (stereo unspecified),-14%
CCC(O)c1cc2n(n1)CCCN(CCn1c(=O)oc3ccccc31)C2 (stereo unspecified),5%
COc1ccccc1-n1cc(C(=O)NCc2cc3n(n2)CCNC3)cn1,3%
Cc1cc(C(=O)N2CCCC(Cc3noc(-c4cnccn4)n3)C2)nn1C (stereo unspecified),-1%
COc1cccc(NC(=O)CCC[C@H]2NC[C@@H]3C[C@H]2CN(Cc2ccccc2)C3)c1,-2%
Cc1nc2c(s1)CCCC2NC(=O)c1cc(-c2ccc(F)cc2)n[nH]1 (stereo unspecified),-7%
CC(C)CC(=O)N1CCC(C(NC(=O)c2ccccc2)C(=O)N2CCCCC2)CC1 (stereo unspecified),5%
Cc1ccc(CN2CC[C@@H]3[C@H]2C(=O)NC[C@H](CCC(=O)N2CCN(c4ccccn4)CC2)N3C)cc1,-14%
Cc1nnc(-c2cc(C(=O)Nc3cccnc3)ccn2)n1CCc1ccccc1,-1%[70.6 µM]
COc1cc(CNCC2CCOCC2)ccc1OCC(O)CN(C)C1CCCCC1 (stereo unspecified),-2%
CC(=O)N1CCC(N2CC3(C2)C(=O)N(Cc2ccccc2F)C(=O)[C@@H]2C[C@@H](O)CN23)CC1,6%
COCC1CN(C(=O)Cc2ccc(S(C)(=O)=O)cc2)CC12CCNCC2 (stereo unspecified),-2%
COc1ccc(OC)c(S(=O)(=O)N2[C@@H]3CC[C@H]2CC(NC(=O)c2ccc(F)cc2)C3)c1 (stereo partly specified),10%
CN(Cc1ccccc1)Cc1cc(CC2(NCc3ccccc3)COC2)no1,-8%[70.6 µM]
Cc1ccc(NC(=O)N2CC(C(=O)N(C)C)C3(CCOCC3)C2)cc1C (stereo unspecified),5%
CCc1nc(-c2c3n(c(=O)n(Cc4ccccc4)c2=O)CCCC3)no1,-4%
O=C(c1cnccn1)N1CCC(NCc2cc3n(n2)CCCNC3)CC1,4%
CCO[C@H]1CN(C(=O)c2cnn(Cc3ccccc3)c2)C[C@@H]1O,3%
COc1ccccc1CCC(=O)N1C[C@H](c2nc(-c3cccnc3)no2)[C@@H](C)C1,-5%
Cc1cc2nc3n(c(=O)c2n1CC(=O)Nc1ccc2c(c1)OCO2)CCCC3,-2%
Fc1ccc(CN2CCCC3(CC(c4cccc(C(F)(F)F)c4)=NO3)C2)cc1 (stereo unspecified),-25%
O=C(N[C@H]1[C@H](O)[C@H](O)C[C@@H]1c1ccncc1)c1ccccc1,-1%[70.6 µM]
CCC(c1cccs1)N1C(=O)[C@H]2CN(C)C[C@H]2C1=O (stereo partly specified),-1%
COCC(=O)N1CCC2(CC1)Cc1ccccc1NC2=O,22%[70.6 µM]
N#Cc1ccc(-n2nc(C3CCOCC3)nc2C2(C(N)=O)CC2)cc1,25%
O=C(NC1CC1)[C@@H]1C[C@H](Oc2ccccc2)CN1C(=O)CN1CCCCCC1,0%
Cc1cn2nc(C(=O)NC3CCCCCC3)cc2c(N2CCCC2)n1,0%
CNC(=O)[C@@H]1C[C@H](Oc2ccccc2)CN1S(=O)(=O)c1cccs1,3%
COc1ccc(-c2noc([C@@H]3C[C@H](NS(=O)(=O)c4ccc(OC)cc4)CN3C)n2)cc1,?
O=C(Nc1cccn2nc(C3CCC3)nc12)c1ccc(F)cc1Cl,-1%
O=C([C@@H]1C[C@H](Oc2ccccc2)CN1C(=O)c1ccncc1)N1CCCC1,1%
COCCNC(=O)C(NC(=O)C1CCCC1)C1CCN(C(=O)c2cccs2)CC1 (stereo unspecified),0%
O=C1NC(C(=O)N2CCc3ccccc3C2)Cn2cccc21 (stereo unspecified),-1%
CCC(CC)N1CC(Oc2cccc(C(=O)NCC3CC3)c2)C1,9%
COCCOCC1(CNCC2CCCC2)C[C@@H](O)[C@@H](O)C1 (stereo partly specified),2%[70.6 µM]
CCO[C@H]1CN(C(=O)CCn2c(C)cc(C)nc2=O)C[C@@H]1O,3%
Cc1nc(CNC(=O)c2cccc(S(=O)(=O)NCc3cnn(C)c3)c2)no1,4%
O=C(NC1CCN(c2cc(-c3ccc(F)cc3)[nH]n2)CC1)c1cc(F)ccc1Cl,-22%
COC(=O)C1=CN(Cc2cccc(Cl)c2)S(=O)(=O)N=C1C,-2%
CN(Cc1ccccc1)Cc1cc(CC2(NCc3ccc(N(C)C)cc3)COC2)no1,-13%[70.6 µM]
O=C(NCC1CC1)C1CCCN(c2nc3ncccc3o2)C1 (stereo unspecified),0%[70.6 µM]
O=C([C@@H]1C[C@H](Oc2cccnc2)CN1C(=O)COc1ccc(F)cc1)N1CCCC1,-8%
O=C(c1ccccc1F)N1CCn2c(nnc2-c2ccccc2)C1,0%[70.6 µM]
Cc1[nH]nc2c1C(c1ccc(Cl)cc1)C(C#N)=C(N)O2 (stereo unspecified),-5%
O=C(c1cnsn1)N1CCc2c(cc(-c3cccc(F)c3)c(=O)n2CCN2CCCCC2)C1,5%
COc1ccnc(N2CCN(CC3(O)CNCCOC3)CC2)n1 (stereo unspecified),1%
CN1C(=O)COC[C@@H]1[C@H](O)c1ccc(NC(=O)c2ccc(F)c(Cl)c2)cc1,-21%[70.6 µM]
CCOCCOC1CCN(S(=O)(=O)c2cn(C)cn2)CC1,3%
COCCNC(=O)c1ccc(OC2CCN(Cc3cccc(SC)c3)CC2)c(Cl)c1,-12%
CCCc1nc(C(=O)N2CCCCC2C(=O)OCC)cs1 (stereo unspecified),3%
C[C@H](C(=O)N1CCOCC1)C1CC[C@@]2(C)Cc3sc(-c4ccccc4)nc3[C@@H](C)[C@@H]2[C@H]1O (stereo partly specified),-2%
COc1ccc(NC(=O)c2ccnc(-c3nnc4ccc(Nc5ccccc5)nn34)c2)cn1,-26%[70.6 µM]
CN(C)c1nc2c(c(=O)[nH]1)CCN(Cc1cccc(OC(F)(F)F)c1)CC2,-2%
COc1ccccc1-c1[nH]nc2ncc(C(=O)N3CCN(Cc4ccccc4)CC3)nc12,0%[70.6 µM]
N#Cc1cccc(CN2CC[C@@H]3OCC(=O)N(Cc4ccccc4)[C@H]3CC2)c1,-15%[70.6 µM]

# A second format for four compounds above.
> CCO[C@H]1CN(C(=O)c2cnn(Cc3ccccc3)c2)C[C@@H]1O
  hNpr1 antagonist: 3%

> COc1ccccc1CCC(=O)N1C[C@H](c2nc(-c3cccnc3)no2)[C@@H](C)C1
  hNpr1 antagonist: -5%

> Cc1cc2nc3n(c(=O)c2n1CC(=O)Nc1ccc2c(c1)OCO2)CCCC3
  hNpr1 antagonist: -2%

> Fc1ccc(CN2CCCC3(CC(c4cccc(C(F)(F)F)c4)=NO3)C2)cc1 (stereo unspecified)
  hNpr1 antagonist: -25%

# Going on with the list:
SMILES,hNpr1 antagonist
Cc1cccc(C(=O)N2CCCC(N3CCN(c4cccc(C(F)(F)F)c4)CC3)C2)c1 (stereo unspecified),-19%
Cc1ccc(-c2cc3c(=O)n(CCNC(=O)c4ccoc4)ccn3n2)cc1C,-12%
CC[C@H](C)[C@H](N)C(=O)N1CCC2(CCC(=O)N(Cc3ccccc3)C2)CC1,5%
CO[C@@H]1CO[C@H]2[C@@H]1OC[C@@H]2n1nnnc1C(C)C,3%[70.6 µM]
COCCN1CC2(CCC1=O)CCN(c1nc(C(C)C)ccc1C#N)CC2,-5%
O=C1C2CN([S+](=O)([O-])c3ccccc3)CCC2OCCN1Cc1ccccc1 (stereo unspecified),-9%[70.6 µM]
COCCOCc1nc(C2CCN(S(=O)(=O)c3cc(F)ccc3F)CC2)no1,-3%
Cc1ccc(NC(=O)Cn2c(N3CCCCC3)nc(C)c(C)c2=O)cc1C,-1%
COc1cccc(N2CC(C(=O)NC3CC3)NC2=O)c1 (stereo unspecified),15%[70.6 µM]
COc1ccc(NC(=O)N2CC(c3nnc(-c4ccncc4)o3)C3(CCOCC3)C2)cc1 (stereo unspecified),-8%
O=C(NCc1ccncc1)C1CCc2nc(N3CCN(C(=O)C4CCC4)CC3)sc2C1 (stereo unspecified),0%
O=C1CCCCN1CCNc1ccc(-c2nc(-c3ccccc3F)no2)cn1,-29%
c1ccc(Nc2cc3c(cn2)NCCN(Cc2ccc4[nH]ccc4c2)C3)cc1,-15%[70.6 µM]
O=C(Nc1cccc(-c2nnc3n2CCCC3)c1)c1ccccn1,-1%
COCCNc1cc(-c2noc([C@@H]3CCCN3Cc3ccccn3)n2)ccn1,-1%[70.6 µM]
F[C@@H]1CN(C2CCOCC2)C[C@@H]1OCc1nc2ccccc2o1,-8%[70.6 µM]
COc1cccc(Cn2c(=O)c(-c3noc(C)n3)c3n(c2=O)CCCCC3)c1,-18%
CN(Cc1cccc(C(F)(F)F)c1)C(=O)c1ccc(F)cc1,-1%[70.6 µM]
COc1ccc(C(=O)NCC2Cn3cccc3C(=O)N2CC(C)C)cc1 (stereo unspecified),-12%
O=C(Cc1cccc(F)c1)N1CCN(C(=O)N2CC3CC(C2)[C@H]2CCCC(=O)N2C3)CC1 (stereo partly specified),-1%
CCc1nc(-c2c3n(c(=O)n(Cc4cc(F)cc(F)c4)c2=O)CCCCC3)no1,-3%
O=C(Nc1ccc(C2(C(=O)NCc3ccc4c(c3)OCO4)CCCCC2)cc1)C1CC1,4%
O=C(NC1CCCN(c2cc(-c3ccccc3)[nH]n2)C1)c1ccccn1 (stereo unspecified),-8%
COCc1nc2nc(-c3ccccc3)c(-c3ccccc3O)cc2n1C,5%[70.6 µM]
O=C1c2c(nc(CN3CCCC(CO)C3)n2Cc2ccccc2)NCCN1CCOc1ccccc1 (stereo unspecified),4%
O=c1[nH]c(C2CCCN(CC3CCCCC3)C2)nn1-c1ccccc1 (stereo unspecified),15%[70.6 µM]
CN(Cc1ccsc1)C1CCOc2ccccc21 (stereo unspecified),0%[70.6 µM]
CC(=O)N[C@@H]1C[C@H](Cn2cc(CN3CCS(=O)(=O)CC3)nn2)[C@@H](O)[C@H]1O,1%
CCn1cc(S(=O)(=O)N2CCCCCCN(C)C(=O)CC2)cn1,-3%
COCc1ccccc1-c1nccc2c(=O)cc(-c3cnn(C)c3)oc12,1%[70.6 µM]

# The list goes on; it opens with the seven that closed the last part.
SMILES,hNpr1 antagonist
COCc1nc2nc(-c3ccccc3)c(-c3ccccc3O)cc2n1C,5%[70.6 µM]
O=C1c2c(nc(CN3CCCC(CO)C3)n2Cc2ccccc2)NCCN1CCOc1ccccc1 (stereo unspecified),4%
O=c1[nH]c(C2CCCN(CC3CCCCC3)C2)nn1-c1ccccc1 (stereo unspecified),15%[70.6 µM]
CN(Cc1ccsc1)C1CCOc2ccccc21 (stereo unspecified),0%[70.6 µM]
CC(=O)N[C@@H]1C[C@H](Cn2cc(CN3CCS(=O)(=O)CC3)nn2)[C@@H](O)[C@H]1O,1%
CCn1cc(S(=O)(=O)N2CCCCCCN(C)C(=O)CC2)cn1,-3%
COCc1ccccc1-c1nccc2c(=O)cc(-c3cnn(C)c3)oc12,1%[70.6 µM]
CC(C)N1C(=O)C2(CCCC2)C1C(=O)NC1CCCC1 (stereo unspecified),9%
COc1ccc(C(=O)N[C@@H]2CCC[C@@H]2C(=O)NCCc2cccs2)cn1,4%
CCN1c2cc(C(=O)Nc3ccc(OC)c(Cl)c3)ccc2C(=O)N2CCCCC21 (stereo unspecified),-26%
C[C@@H]1CN(C(=O)c2ccc3c(c2)NC(C)(CNc2ccccc2)CO3)C[C@H](C)O1 (stereo partly specified),1%[70.6 µM]
Cc1noc(-c2cccc(F)c2)c1C(=O)NCc1ccc2c(c1)OCO2,-9%
O=C(O)c1cc(-c2ccncc2)cc(S(=O)(=O)N2CCCCCC2)c1,3%
CC(C)c1nc(CN(C)C(=O)c2cn(CC3CCCNC3)nn2)cs1 (stereo unspecified),6%
COC[C@@H]1CN(C(=O)c2ccc(OC)cc2OC)C[C@H]1c1ccccn1,-19%
Fc1cccc(CN2CCCC3(CCN(c4cnccn4)C3)C2)c1F (stereo unspecified),5%
COc1cccc(CC(=O)NCc2nnc3cc(-c4nc(C(C)C)no4)ccn23)c1,0%
Cc1cc(=O)n(CC(=O)Nc2ccccc2C)c(-c2ccc(Cl)cc2)n1,-3%
CC(=O)Nc1ccc(S(=O)(=O)N2CCCC(N(C)CCc3ccccn3)C2)cc1 (stereo unspecified),0%
Cc1cccc(C(=O)NC2CCN(c3cc(-c4ccc(Cl)cc4)[nH]n3)CC2)c1,-2%
Cc1csc(NC(=O)c2cnc3c(c2)N([S+](=O)([O-])c2cccnc2)CCC3)n1,6%[70.6 µM]
O=C1CCCCC(Cc2cccnc2)(C(=O)NCc2ccc3c(c2)OCO3)N1 (stereo unspecified),1%
COc1ccc(-c2cc(N3CCN(C(=O)c4ccc(F)c(Cl)c4)CC3)n[nH]2)cc1,?
COc1cccc([C@@H]2CN(C(=O)c3ccc(CO)o3)C[C@H]2C(=O)O)c1,5%

# From PubChem BioAssay

# These rows are one share of the data; count on the stated rates, not on these rows.
